Source: PubChem
RN4220 kill – S. aureus RN4220 growth inhibition | OD600, 16 h | inhibition, % (concentration not given with the values) | 0.33% of 330,000 active;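 active = z-score of -3 or lower and OD600 up to 0.18 on both plates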;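 also: plate controls were untreated cells for no effect and reference antibiotic for full effect; stock transfer was 100 nL into about 80 µL; one replicate is shown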
Mtb hypoxia inh – inhibitors of hypoxia-regulated fluorescent reporter in Mycobacterium tuberculosis; AID 1159583; fluorescence inhibition, % (concentration not given with the values); M. tuberculosis hypoxia-regulated fluorescent reporter, fluorescence; 0.1% of 300,000 active;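 active = 35 to 45% if threefold the growth effect, above 45% if 1.5-fold the growth effect; inactive = the rest, general growth blockers included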;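 also: wells of about 50 µL received 100 nL stock; 0% = vehicle wells and 100% = reference inhibitor wells; whole bacteria with a GFP reporter of the hypoxia response; strong numbers were not always called active; many hits fall short of the cut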
BJeLR lethal – BJeLR cell viability loss; 0.17% of 300,000 active; BJeLR (HRASV12) viability, CellTiter-Glo ATP luminescence, 48 h; reference of the scale not given here; inhibition, % (no concentration beside the values);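 active = replicate mean above 50%; inconclusive = above 50% but judged a plate artefact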;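 also: 50 nL library stock added to about 25 µL; numbers are from one replicate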
PrP UTR inh – inhibition of PrP 5' UTR reporter expression. cell-based PrP 5' UTR mRNA reporter, plate reader. AID 488862. inhibition, % (concentration not given with the values). 0.35% of 340,000 active;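 active = every replicate at 50% or more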;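 also: 0 = median of the neutral control wells; tested in H4 reporter cells; numbers are from one replicate; inactives centre near -14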
ugtP null kill – growth inhibition of S. aureus ugtP deletion strain. S. aureus RN4220 ugtP deletion, OD600 growth, 16 h; some inactives read as strong as hits. AID 1259309. 0.54% of 330,000 active. growth inhibition, % (test concentration not listed);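 active = z-score under -3 and OD600 up to 0.15 on both plates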;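 also: plate controls were untreated wells for no effect and antibiotic for full effect; wells of about 80 µL received 100 nL stock; the first replicate is given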
Autofluor counter – flagged as autofluorescent in microsphere protease counterscreen | compound autofluorescence counterscreen, microsphere flow cytometry; active compounds read high | fluorescence intensity (concentration not given with the values) | 3.1% of 360,000 active;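 active = at least 3 SD above the mean of all compounds, about 16000 in these data; inconclusive = too few beads counted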;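 also: 100 nL of 1 mM stock went into each well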
Mtb hypoxia inh growth – recorded beside Mtb hypoxia inh, whose call it bears; growth inhibition, %; measured here: M. tuberculosis growth (absorbance);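 0% = vehicle and 100% = reference antibiotic; read after six days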
* hit, by the source's call; ? = inconclusive; / = no result given; & = joins results of further samples.

SMILES	RN4220 kill	Mtb hypoxia inh	Mtb hypoxia inh growth	BJeLR lethal	PrP UTR inh	ugtP null kill	Autofluor counter
CCOc1cc(/C=N/NC(=O)COc2ccc(Cl)cc2)ccc1OS(=O)(=O)c1ccccc1	/	/	/	-3	-11	/	3411
Cc1ccc(NC(=O)Cn2ncn3c(cc4ccccc43)c2=O)cc1F	0.2	0	-5	-1	1	-2	4410
Cc1cc(-c2ccc(S(=O)(=O)N3CCN(c4cccc(C)c4C)CC3)s2)on1	-0.4	7	9	11	-13	-1	5794
Cc1ccc2cc(COC(=O)c3cccc([N+](=O)[O-])c3)c(=O)[nH]c2c1	-2.2	7	2	-1	-16	0	5609
CCOC(=O)c1[nH]c2ccccc2c1NC(=S)Nc1cccc(C)c1C	0.6	-10	9	-1	-13	-13	4316
O=C(NNC(=S)NCC1CCCO1)c1ccc(S(=O)(=O)N2CCOCC2)cc1 (centres undefined)	6.8	10	6	0	-1	6	4320
COc1ccc(CNC(=O)C/C(C)=N/NC(=O)COc2cccc(C)c2)cc1	/	/	/	2	-12	/	4404
COc1ccc(-n2c(-c3ccc(Br)cc3)c[n+]3c2SC(C)C3)cc1 (centres undefined)	0.3	-3	-3	1	-12	9	3970
CCOC(=O)c1cc(-c2ccccc2)n(CCC(=O)NC(C)CC)c1C (centres undefined)	5.5	3	1	1	-1	6	7676
NC(=NOC(=O)c1cccc2ccccc12)c1ccc(Br)cc1	-6.6	10	0	/	/	-1	/
Cc1ccc(-n2[nH]c(C)c(/C=N/NC(=O)c3ccc(O)cc3O)c2=O)cc1	/	/	/	3	-1	/	2801
Cc1nc(C)c(-c2ccc(SCC(=O)Nc3ccc(F)cc3F)nn2)s1	0.3	10	4	0	-25	0	6000
CC(=NNC(=S)NCc1ccccc1)c1cccc(Br)c1	6.0	13	12	/	/	3	/
O=C(Nc1ccccc1)OCCOc1cccc(Br)c1	4.0	11	-2	0	-65	-9	3542
O=C(C1CCCN(Cc2ccc(Cl)cc2)C1)N1CCCCC1 (centres undefined)	5.4	17	18	3	-17	3	4625
COc1ccc(CNC(=O)C2CCCN(S(=O)(=O)c3c(C)nn(C)c3C)C2)cc1 (centres undefined)	1.6	/	/	-5	10	8	5568
O=C(COc1ccccc1)NC1CCS(=O)(=O)C1 (centres undefined)	1.2	-3	6	-10	-12	4	3869
Cc1ccc(C2CC=C(C(=O)O)C(c3ccccc3)N2S(=O)(=O)c2ccc(C)cc2)cc1 (centres undefined)	19	9	5	/	/	26	/
CCOC(=O)c1c(CSc2ccccc2)n(C)c2ccc(O)cc12	1.8	-11	-11	-9	17	-8	2943
COc1[nH]c(/N=C/c2ccccc2)c(C#N)c1C#N	/	/	/	2	-15	/	3338
C=C1CCN([C@@H](Cc2ccccc2)C(=O)N2CCOCC2)S(=O)(=O)c2ccccc21	/	/	/	15	-3	/	4033
CS(=O)(=O)Nc1ccc(S(=O)(=O)N2CCOCC2)cc1	3.2	11	11	-3	-27	2	3270
C=CCOc1ccc(C=NNC(=O)C(C)Sc2ccccn2)cc1OC (centres undefined)	4.3	5	-2	/	/	6	/
CCOc1ccc(/C=C(/NC(=O)c2ccccc2)C(=O)NCCC(=O)O)cc1	/	/	/	-3	-21	/	3595
COc1ccc(C(CNC(=O)COc2ccc(C)c(C)c2)N2CCCCC2)cc1 (centres undefined)	4.8	17	12	3	-20	2	5649
Cc1cccc(-n2ncc3c2CCCC3NC(=O)CCc2cccnc2)c1C (centres undefined)	-4.1	1	-4	2	-4	-7	3792
COc1cc(/C=C/C(=O)OCC(=O)N2CCCc3ccccc32)ccc1OC(F)F	-1.2	-3	-5	-5	3	12	/
Cc1[nH]c2ccccc2c1C=NNS(=O)(=O)c1ccccc1	9.5	2	6	/	/	3	/
COc1ccc(C(CNC(=O)c2ccc3c(c2)OCCO3)N(C)C)cc1 (centres undefined)	3.6	17	3	-7	-28	3	3941
Cc1noc(NS(=O)(=O)c2ccc(NC(=O)c3nn(-c4ccc(F)cc4)ccc3=O)cc2)c1C	0.4	/	/	-3	-4	-3	6305

Arranged by length of the SMILES (falling): 3 of the compounds above
SMILES	RN4220 kill	Mtb hypoxia inh	Mtb hypoxia inh growth	BJeLR lethal	PrP UTR inh	ugtP null kill	Autofluor counter
CCOc1ccc(/C=C(/NC(=O)c2ccccc2)C(=O)NCCC(=O)O)cc1	/	/	/	-3	-21	/	3595
C=CCOc1ccc(C=NNC(=O)C(C)Sc2ccccn2)cc1OC (centres undefined)	4.3	5	-2	/	/	6	/
Cc1[nH]c2ccccc2c1C=NNS(=O)(=O)c1ccccc1	9.5	2	6	/	/	3	/

Further results
SMILES	RN4220 kill	Mtb hypoxia inh	Mtb hypoxia inh growth	BJeLR lethal	PrP UTR inh	ugtP null kill	Autofluor counter
Cc1oc2c(c(C)cc3oc(=O)c(CC(=O)NCC(=O)NCC(=O)NCC(C)O)c(C)c32)c1C (centres undefined)	3.0	1	-2	1	-15	8	4232
CCOc1cccc(NC(=O)C(Cc2cccs2)c2nn[nH]n2)c1 (centres undefined)	1.1	4	4	-2	-20	4	20016*
CCN(CC)C(=O)C(C)N(C#N)c1nc(C)cc(C)n1 (centres undefined)	1.8	9	-7	5	-13	3	10688
COc1ccc(C2CC(c3ccccc3)n3nnnc3N2)cc1 (centres undefined)	-1.1	0	-6	-2	2	-1	3106
COc1ccc(S(=O)(=O)N(C)CC(=O)NCc2ccco2)cc1OC	2.0	1	3	-2	6	0	3138
CC(=O)N1c2ccc(S(=O)(=O)N3CCCC(C(=O)N4CCC(C)CC4)C3)cc2CC1C (centres undefined)	-2.9	6	0	-1	-33	6	4401
CC(=O)NC1CC2CCCC(C1)N2C(=O)Nc1ccccc1C (centres undefined)	0.4	8	1	/	-5	10	3208
O=C(CCN1C(=O)C2C3C=CC(C3)C2C1=O)N1CCN(c2ccc(F)cc2)CC1 (centres undefined)	-2.5	/	/	/	-13	-2	4758
O=C(CSc1ccc(Br)cc1)NCC1CCCO1 (centres undefined)	1.1	12	9	-2	-5	4	2588
Cc1ccc(S(=O)(=O)N(CC(=O)N2CCOCC2)c2ccc(C(C)C)cc2)cc1	/	/	/	5	-5	/	5210

Overlap with the part before: four compounds, followed by the next part.
SMILES	RN4220 kill	Mtb hypoxia inh	Mtb hypoxia inh growth	BJeLR lethal	PrP UTR inh	ugtP null kill	Autofluor counter
CC(=O)NC1CC2CCCC(C1)N2C(=O)Nc1ccccc1C (centres undefined)	0.4	8	1	/	-5	10	3208
O=C(CCN1C(=O)C2C3C=CC(C3)C2C1=O)N1CCN(c2ccc(F)cc2)CC1 (centres undefined)	-2.5	/	/	/	-13	-2	4758
O=C(CSc1ccc(Br)cc1)NCC1CCCO1 (centres undefined)	1.1	12	9	-2	-5	4	2588
Cc1ccc(S(=O)(=O)N(CC(=O)N2CCOCC2)c2ccc(C(C)C)cc2)cc1	/	/	/	5	-5	/	5210
COc1cc(CNc2ncn[nH]2)ccc1OCc1ccccc1C	1.7	7	5	-6	-37	4	3206
O=C(CSc1cccc2cccnc12)N/N=C/c1cccc(O)c1	/	/	/	-2	-1	/	3270
C/C(=C\c1ccco1)C1C(C#N)=C(N)OC2=C1C(=O)CC(C)(C)C2 (centres undefined)	2.8	9	16	0	-9	-2	4170
Cc1ccc(C)c(Cn2cnc3c(oc4ccccc43)c2=O)c1	-9.2	1	1	6	-8	-1	3272
N#CCC(=O)Nc1ccc(C(=O)OC(C(=O)Nc2cc(C(F)(F)F)ccc2Cl)c2ccccc2)cc1 (centres undefined)	-8.4	4	1	-2	-9	23	4342
CCCOc1ccc(C2(C(=O)O)CCCC2)cc1	6.1	4	7	-9	-23	-12	9154
O=C(c1cccs1)N1CCN(CC=Cc2ccccc2)CC1	-2.3	1	6	/	/	4	/
CCOC(=O)c1cc2cc(OCc3ccccc3)ccc2nc1C	9.0	8	8	-12	-7	8	3659
COCCN(C(=O)Cn1c(C(F)(F)F)nc2ccccc21)c1c(N)n(Cc2ccccc2)c(=O)[nH]c1=O	0.8	10	8	-4	-5	4	5236
OC(COCc1ccccc1F)CN1CCCCC1 (centres undefined)	1.3	7	-6	0	-9	6	3348
Nc1c(-c2ccccc2)cnc2c(-c3ccccc3)cnn12	-3.3	-7	0	-4	-35	-3	2867
COc1cccc(CN2CCN(Cc3ccc(C#CC(C)(C)O)s3)CC2CCO)c1 (centres undefined)	-1.2	-2	11	-4	-5	-1	2268
Nc1nonc1C(=O)N/N=C/c1cccc([N+](=O)[O-])c1	/	/	/	-1	-15	/	10272
COC(=O)C(C)Oc1ccc(=O)[nH]n1 (centres undefined)	1.8	-1	8	-1	-3	-6	2423
COc1ccc(Cl)cc1C(=O)NCCCN1CCOCC1	1.0	14	2	-15	-21	3	3925
Cc1ccc(S(=O)(=O)N2CCN(C(=O)CCN3C(=O)c4ccccc4C3=O)CC2)cc1C	11	5	4	-1	-22	-1	1966
Cc1cccc(C(=O)ON=C(c2ccccc2)c2cccnc2)c1	-2.0	-11	-3	/	/	4	/
COc1ccc(N(CC(=O)O)S(=O)(=O)c2c(C)n[nH]c2C)cc1	5.1	15	3	5	-37	8	7745
CCN(CC)c1ccc(/C=C/C(=O)c2ccc(Br)cc2)cc1	-2.3	7	5	-2	-12	9	30707*
Cc1nc(NS(=O)(=O)c2ccccc2)sc1NC(=O)Nc1ccccc1	5.0	-7	8	-3	-16	-1	3449
CC(C)c1ccc(S(=O)(=O)N2CCN(CC(O)CN3CCOCC3)CC2)cc1 (centres undefined)	7.5	-5	4	/	-21	8	3829
CCn1nc(CC(C)C)cc1C(=O)N1CCCC(Nc2ccc(OC)cc2)C1 (centres undefined)	1.6	8	3	1	-11	3	4184
COc1ccc(-c2[nH]ncc2CN2CCC(OCc3cccnc3)CC2)c(F)c1	-2.7	-5	-13	2	6	-3	3377
COc1ccc(S(=O)(=O)N(C)c2ccc(C(=O)Nc3ccccc3C(=O)N3CCOCC3)cc2)cc1OC	-2.4	9	0	-14	-8	-2	6088
Fc1ccc(Oc2nccc(-c3ccc(Cl)cc3)n2)cc1	-1.2	/	/	-3	-11	-3	2376
CC(=O)NC(Cc1cnc[nH]1)C(=O)O (centres undefined)	-4.2	-7	-1	-3	-11	-4	/
Cc1cc(C)n(-c2ccc(C(=O)OCc3ccccc3)cc2)n1	-0.4	-6	9	3	-19	19	2073
COc1ccccc1N1CCN(C(=O)CCNS(=O)(=O)c2ccc(Br)s2)CC1	0.4	/	/	-8	-11	-2	2546
CC(=O)Nc1c2c(nn1-c1cccc(Cl)c1)CS(=O)C2 (centres undefined)	3.8	3	10	10	-1	4	5496
COc1ccc(S(=O)(=O)N2CCN(C(=S)Nc3ccc(S(N)(=O)=O)cc3)CC2)cc1	-0.4	3	-2	2	2	4	6063
COC(=O)c1oc2ccc(Cl)cc2c1-n1cccc1	3.7	3	8	-2	-17	-8	7960
O=C(NCc1ccco1)C1CC(c2ccc(F)cc2)=NO1 (centres undefined)	2.0	/	/	-7	0	0	4675
O=C(NCCN1CCCC1)C(c1ccccc1)c1ccccc1	5.7	-8	-1	3	-5	3	?
CCOCCCNC(=O)C(NC(=O)c1cnccn1)c1ccc(OC)cc1 (centres undefined)	5.0	/	/	-3	-1	14	4263
O=C(/C=C/c1ccccc1)Oc1cccc(C(=S)N2CCOCC2)c1	/	/	/	-6	-7	/	5085
O=C(NCc1nnc(SCc2ccc(F)cc2)n1-c1ccc(F)cc1)C12CC3CC(CC(C3)C1)C2	2.4	-3	-1	2	-11	-19	2102
O=C(O)CCCNC(=O)C(c1ccccc1)c1ccccc1	-1.9&4.0	6&-3	2&-1	-12&4	-11&-6	2&8	2241&2052
N#CCSc1nc2scc(-c3cccs3)c2c(=O)n1CCc1ccccc1	1.0	4	7	-5	-22	-4	3100
Cc1ccc(CC2SC(=O)NC2=O)cc1Cl (centres undefined)	4.9	4	4	7	-4	-2	3822
COc1ccc(C=NNC(=O)Cn2nnc3ccccc32)cc1OC	-0.7	3	8	/	/	1	/
CC(C)CN(CC(C)C)c1nn[nH]n1	1.2	17	13	/	-19	2	3544
CCOc1ccc(-c2nnc3sc(COc4ccc(Cl)cc4)nn23)cc1	-0.5	/	/	/	-9	-6	4282
COC(=O)CNC(c1ccccc1)c1cc(C)ccc1NC(=O)c1cccc(Cl)c1 (centres undefined)	/	/	/	12	-4	/	2283
O=C(CCCN1C(=O)/C(=C\c2ccccc2)SC1=S)Nc1ccc(O)cc1	8.3	9	4	0	6	3	4820
CC1CCCCN1C(=O)CSc1ccc(-c2ccc(F)cc2)nn1 (centres undefined)	3.0	8	6	4	-30	-1	10777
